# High-throughput results as filed in PubChem.
# RGS16-Gao HTS = modulates binding between human RGS16 and Galphao; AID 1441; O15492+P09471; hit rate 0.38% among 220,000; bead-based flow cytometry RGS16-Galphao binding, fluorescence; actives lie on both sides; binding response (% of control), % at 10 µM;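 active means below 25% or above 175%, edge rows of some plates excepted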;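 further: Galphao activated by GDP with aluminum fluoride before binding; 100% = wells without compound and 0% = beads without RGS; some results beyond the cut were filed as inactive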
# GALR2 agonist = activates the human galanin receptor 2. O43603. GALR2-expressing cells, agonist activation read-out. activation, %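 (tested at 5 µM)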. hit rate 0.48% among 140,000;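 active means above mean plus 3 SD of all compounds, about 5% in these data, not always enough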;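 further: 0% = vehicle buffer wells and 100% = reference agonist at full effect; tested in CHO reporter cells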
# INS promoter inh = TRM-6 insulin promoter activity inhibition; TRM-6 cells (human fetal islet line), insulin promoter-eGFP reporter, imaging; reporter expression induced with tamoxifen; inhibition, % at 2 µM; hit rate 0.9% among 130,000; AID 1273;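 active means inhibition above the mean plus 3 SD, with well images judged a real hit on visual review, cut at about 60% in these data, passing the limit was not always enough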
# PKD1 inh = PKD1 (human) kinase inhibition; inhibition, %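 (about 10 µM by stock and volumes)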; PKD1 kinase fluorescence polarization assay; hit rate 0.056% among 200,000; AID 797; Q15139;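 active means inhibition of 50% or more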;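 further: controls were vehicle for no effect and a reference inhibitor for full effect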
# Target sequence (Q15139 whole entry, looked up): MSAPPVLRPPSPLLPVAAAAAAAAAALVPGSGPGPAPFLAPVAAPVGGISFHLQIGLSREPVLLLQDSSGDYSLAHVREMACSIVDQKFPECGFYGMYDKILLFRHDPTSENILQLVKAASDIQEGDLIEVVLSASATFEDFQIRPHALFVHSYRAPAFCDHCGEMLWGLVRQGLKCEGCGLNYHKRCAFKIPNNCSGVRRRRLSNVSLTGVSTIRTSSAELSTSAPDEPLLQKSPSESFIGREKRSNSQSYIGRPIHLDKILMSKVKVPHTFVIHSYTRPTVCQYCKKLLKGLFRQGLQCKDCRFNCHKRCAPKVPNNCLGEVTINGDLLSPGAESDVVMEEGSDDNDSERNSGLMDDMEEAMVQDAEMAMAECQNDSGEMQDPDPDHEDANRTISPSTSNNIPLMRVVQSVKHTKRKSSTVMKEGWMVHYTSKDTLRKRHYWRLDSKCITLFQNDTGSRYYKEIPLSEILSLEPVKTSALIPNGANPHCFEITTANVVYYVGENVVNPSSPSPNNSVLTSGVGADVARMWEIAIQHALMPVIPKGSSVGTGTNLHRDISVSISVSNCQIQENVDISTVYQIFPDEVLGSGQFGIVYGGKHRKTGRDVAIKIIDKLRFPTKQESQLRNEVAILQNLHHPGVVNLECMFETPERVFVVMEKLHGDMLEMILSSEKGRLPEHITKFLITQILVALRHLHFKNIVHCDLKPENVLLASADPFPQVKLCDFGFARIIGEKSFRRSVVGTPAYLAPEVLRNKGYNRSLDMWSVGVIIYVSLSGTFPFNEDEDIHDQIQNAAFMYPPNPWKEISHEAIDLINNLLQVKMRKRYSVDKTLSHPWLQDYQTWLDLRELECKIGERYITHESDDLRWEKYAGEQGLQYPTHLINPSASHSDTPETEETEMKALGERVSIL
# HSV augment = increases HSV replication in cells. maximum fold increase. hit rate 0.005% among 220,000. AID 1956. HSV replication augmentation in cells, fold increase;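 active means peak rise of 1.5-fold or more in the series; tested in PC3 cells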;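 further: first round at 10 µM; read as green reporter fluorescence; hits show the peak of a series up to 25 µM; 1 = signal of infected wells without compound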
# INS promoter inh cell count = further read-out of INS promoter inh, marked with its call; normalized cell count, %; measured here: cell count, toxicity; reference of the scale not given here;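 cells exposed to compound for 48 h; stained nuclei by imaging scaled within each plate; lower means fewer cells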
# HSV augment primary fold = further read-out of HSV augment, marked with its call; fold increase; compound at 10 µM; measured here: primary screen fold increase 10 uM; tested in PC3 cells;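 GFP signal in the first replicate; 1 = infected wells without compound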
# * hit, by the source's call; i = inactive; . = no result given.
Compound,RGS16-Gao HTS,GALR2 agonist,INS promoter inh,INS promoter inh cell count,PKD1 inh,HSV augment,HSV augment primary fold
O=C(Cn1c(-c2ccccc2)noc1=O)N1CCC(Cc2ccccc2)CC1,108,.,-30,55,-2,i,0.98
Cc1ccc2nc(-c3ccc(NS(=O)(=O)c4ccccc4)cc3)sc2c1,70,11*,-47,72,-11,i,1
CCOC(=O)Nc1cc(=O)c2ccccc2o1,97,-3.4,.,.,10,i,0.77
O=Cc1cn(Cc2ccccc2)nc1-c1cccnc1,101,.,-2,212,-7,i,0.92
O=S(=O)(c1cccs1)N1CCN(c2ccnc3cc(Cl)ccc23)CC1,101,.,.,.,.,i,0.89
CC1CC(C)CN(C(=O)C(Cc2ccccc2)n2cccc2)C1 (configuration not stated),99,.,.,.,.,i,1.1
O=C(CSc1nnc(Nc2ccccc2)s1)NCc1cccs1,101,0.2,.,.,-2,i,1.1
COC(=O)COc1ccc(S(=O)(=O)Nc2ccccc2SC)cc1,66,-0.4,.,.,-2,i,0.87
O=C(CN1CCCCC1CO)c1ccc(OC(F)F)cc1 (configuration not stated),111,.,-23,81,-4,i,0.99
CCCCN(C(=S)Nc1ccccc1)C1CCS(=O)(=O)C1 (configuration not stated),104,-0.8,-20,101,4,i,1
CCc1ccc(CNC(=O)CCc2nnc(CCc3ccc(OC)cc3)o2)nc1,103,.,40,108,2,i,0.85
COn1c(=O)c(=O)n(OC)c2ccccc21,99,-1.8,5,152,-8,i,1.1
CCOc1ccc2nc(NS(C)(=O)=O)sc2c1,99,1.5,18,88,-4,i,0.91
Cc1ccc2nsnc2c1S(=O)(=O)NCc1ccncc1,105,-3.9,.,.,-3,i,1.1
O=c1c2ccccc2n(Cc2cccc(F)c2)c(=O)n1C1CCCC1,100,-1.5,.,.,-7,i,0.9
COC(=O)CCC/C=C1/SCC(NC(=O)c2ccccc2)C1O (configuration not stated),90,-3.1,-59,115,-1,i,0.89
CCN(c1ccccc1)S(=O)(=O)c1ccc(Cl)c(NC(=O)COC(=O)C2CC2C)c1 (configuration not stated),99,.,.,.,-2,i,0.97
O=C(CCc1ccc(S(=O)(=O)N2CCOCC2)cc1)Nc1ccc(N2CCOCC2)cc1,99,-0.5,-10,107,3,i,0.93
O=C(CSc1ncnc2scc(-c3ccccc3)c12)N1CCN(Cc2ccc3c(c2)OCO3)CC1,101,1.5,.,.,-1,i,1.1
Cn1c(CN2CCOCC2)nnc1SCC(N)=O,101,-3.1,18,47,-10,i,1.1
CC1CCN(c2c(NCc3ccc(C(=O)N4CCc5ccccc54)cc3)c(=O)c2=O)CC1,152,-3.1,.,.,-7,i,0.97
COc1cc(OC)c(-c2nnc3n(CCc4ccccc4)c(=O)c4ccccc4n23)cc1OC,109,0.2,16,80,-1,i,0.82
CCC(C(=O)N1CCc2cc(OC)c(OC)cc2C1)c1ccccc1 (configuration not stated),101,0.8,29,87,-11,i,0.85
O=C(Nc1ccccc1C(=O)N/N=C/c1ccncc1)c1ccccc1,100,.,-6,130,-1,i,1.1
O=C(CCCN1C(=O)/C(=C/c2ccccc2Cl)SC1=S)NNC(=O)c1ccccc1Cl,102,-1.1,.,.,3,i,0.85
S=C(c1ccc2c(c1)OCO2)N1CCOCC1,102,.,.,.,.,i,0.92
O=C(Nc1ccc2cn[nH]c2c1)c1ccc(S(=O)(=O)N2CCOCC2)cc1,92,.,.,.,0,i,0.96
CCC(C)NC(=O)Cc1ccc(-c2ccccc2)cc1 (configuration not stated),104,.,-20,45,4,i,1
Cc1ccc(-c2nn3c(C)nnc3s2)cc1NC(=O)c1ccc(-c2ccc(Cl)cc2Cl)o1,97,6.8*,.,.,-10,i,0.56
O=C(COC(=O)CCc1c[nH]c2ccccc12)NC(c1ccccc1)c1ccccc1,98,0.4,15,121,7,i,1

# Entries shown so far that have fluorine, in the order listed:
Compound,RGS16-Gao HTS,GALR2 agonist,INS promoter inh,INS promoter inh cell count,PKD1 inh,HSV augment,HSV augment primary fold
O=C(CN1CCCCC1CO)c1ccc(OC(F)F)cc1 (configuration not stated),111,.,-23,81,-4,i,0.99
O=c1c2ccccc2n(Cc2cccc(F)c2)c(=O)n1C1CCCC1,100,-1.5,.,.,-7,i,0.9

# Next part:
Compound,RGS16-Gao HTS,GALR2 agonist,INS promoter inh,INS promoter inh cell count,PKD1 inh,HSV augment,HSV augment primary fold
CCOC(=O)C1=c2s/c(=C\c3ccncc3)c(=O)n2C(N)=C(C(=O)OC)C1c1ccncc1 (configuration not stated),114,.,25,79,-10,i,0.95
O=C(NCC1CCCO1)c1cc(-c2ccc(Cl)cc2Cl)on1 (configuration not stated),93,0.8,-86,55,-9,i,0.86
CCOC(=O)C(=CNc1ccc(-c2ccco2)c(Cl)c1)C(=O)OCC,101,.,.,.,.,i,0.87
COc1ccccc1C/C(N)=N/OC(=O)c1cccc([N+](=O)[O-])c1,126,-2.0,8,56,-8,i,0.98
CC(=O)OCCN(C)c1cc(SC(C)C)c2nonc2c1[N+](=O)[O-],98,.,33,61,-3,i,1
Cc1cc(C)c(NC(=O)C(C)OC(=O)c2cc(Br)c(Br)s2)c(C)c1 (configuration not stated),116,-1.1,-22,104,4,i,0.95
Cc1ccc2cc(CN(C(=O)c3ccco3)c3ccccc3)c(=O)[nH]c2c1,95,-1.2,.,.,2,i,0.99
Cc1[nH]c2ccccc2c1/C=C(\C#N)C(=O)NC(C)c1ccccc1 (configuration not stated),107,-0.8,21,113,-2,.,.
C=CCn1c(NCCOC)nc2c1c(=O)n(C)c(=O)n2C,90,-2.0,.,.,-10,i,0.92
CC(C)(C)NC(=O)C(c1ccncc1)N(C(=O)Cn1nnc(-c2ccc(F)cc2)n1)c1ccccc1F (configuration not stated),98,.,0,77,1,i,1
CCn1cc(/C=C/C(=O)Nc2ccn(Cc3c(F)c(F)c(F)c(F)c3F)n2)cn1,109,-2.4,0,63,-13,i,1
CN1CCN(Cc2c(O)c(Cl)cc3c(-c4ccccc4)cc(=O)oc23)CC1,100,-0.6,.,.,-1,i,1
Cc1ccc(C)c(N(CC(=O)N(C)C)S(C)(=O)=O)c1,94,0.1,3,146,2,i,0.97
COc1ccc(NC2=Nc3cccc4cccc2c34)cc1,102,0.0,41,117,-2,i,1
COc1ccc(C2(O)CCN(C(=O)c3c(F)cccc3F)CC2)cc1,111,-0.3,.,.,9,i,0.98
O=C(NCCCn1ccnc1)/C(=C\c1ccco1)NC(=O)c1ccco1,107,.,0,108,12,i,1
C=CCn1cc(C(=O)c2cc(Br)ccc2O)cc(C#N)c1=O,110,.,.,.,.,i,0.99
Cc1cc(N2C(=O)CC(Cc3ccc(Cl)cc3)C2=O)no1 (configuration not stated),101,-1.7,-14,227,-1,i,1
COc1ccc(NC(=O)Nc2cccs2)cc1Cl,96,.,.,.,-3,i,1.1
Cc1ccc(/C=C(\CCC(=O)O)c2nc3ccccc3s2)cc1[N+](=O)[O-],102,0.1,2,83,-12,i,0.99
NC(=O)c1ccc(/C=N/O)nc1,103,.,0,107,1,i,0.96
Cc1ccc(N2C(=O)C(CC(=O)Nc3cccc(F)c3)N(CCc3ccncc3)C2=O)cc1 (configuration not stated),101,.,.,.,-5,i,0.93
Cc1ccc([N+](=O)[O-])cc1S(=O)(=O)N1CCCC1,131,-0.8,16,82,-1,i,1.1
CCOC(=O)C1=C(CC)Nc2ccccc2N=C1NC(=O)CCN1C(=O)C2CCCCC2C1=O (configuration not stated),104,.,-55,55,-5,i,1.1
COc1cc(C(=O)NCC(=O)N/N=C/c2c(C)[nH]c3ccccc23)cc(OC)c1OC,100,.,.,.,.,i,0.9
[O-][n+]1c2c(nc3c1-c1ccccc1C3O)CCCC2 (configuration not stated),96,.,51,119,3,i,0.94
COc1cc(NC(=O)c2cccc(F)c2)cc(OC)c1OC,106,.,2,109,0,i,0.98
CC(CNC(=O)c1ccc2c(c1)OCO2)c1ccc([N+](=O)[O-])cc1 (configuration not stated),100,.,.,.,9,i,0.92
Cc1ccc(S(=O)(=O)NCCCCC(NC(=O)OC(C)(C)C)C(=O)O)cc1 (configuration not stated) (tested in a mixture with another compound),107,0.3,44,76,-20,i,0.99
O=C(COc1nnnc2ccccc12)N1CCCc2ccccc21,99,-1.3,8,81,-5,i,0.9

# 4 compounds already listed, arranged by heavy-atom count, low to high.
Compound,RGS16-Gao HTS,GALR2 agonist,INS promoter inh,INS promoter inh cell count,PKD1 inh,HSV augment,HSV augment primary fold
NC(=O)c1ccc(/C=N/O)nc1,103,.,0,107,1,i,0.96
[O-][n+]1c2c(nc3c1-c1ccccc1C3O)CCCC2 (configuration not stated),96,.,51,119,3,i,0.94
Cc1ccc(S(=O)(=O)NCCCCC(NC(=O)OC(C)(C)C)C(=O)O)cc1 (configuration not stated) (tested in a mixture with another compound),107,0.3,44,76,-20,i,0.99
COc1cc(C(=O)NCC(=O)N/N=C/c2c(C)[nH]c3ccccc23)cc(OC)c1OC,100,.,.,.,.,i,0.9

# (more compounds)
Compound,RGS16-Gao HTS,GALR2 agonist,INS promoter inh,INS promoter inh cell count,PKD1 inh,HSV augment,HSV augment primary fold
CCOC(=O)N1CCN(CCC(=O)Nc2ccc(OC)cc2)CC1,99,-0.9,4,150,-3,i,0.96
CCn1c(=O)n(CC)c2cc(S(=O)(=O)NCCOc3ccccc3)c(C)cc21,74,-3.8,0,86,-7,i,1.1
CCOC(=O)N1N=C(C)CC1(O)c1ccccc1 (configuration not stated),108,-0.9,31,73,-1,i,1
COC(=O)c1ccccc1NC(=O)CSc1nccc(C)n1,98,.,-33,56,-7,i,0.97
CC(=O)c1c(C)[nH]c(C(=O)COc2cc(C)ccc2C(C)C)c1C,100,-1.7,22,87,4,i,0.78
COc1ccc(CCNCC(O)COc2cccc(Br)c2)cc1OC (configuration not stated),102,.,.,.,.,i,0.94
O=[N+]([O-])c1cc(-c2cnc3ccccc3n2)ccc1Cl,112,.,.,.,-8,i,0.8
CCOC(=O)c1ccc(Oc2cc(C)nc(Cl)n2)cc1,96,.,.,.,.,i,0.93
Cc1cc(-c2nnc(CCC(=O)N3CCN(Cc4cccc(F)c4)CC3)o2)c(C)o1,103,.,.,.,-5,i,1.2
CCC1CCCCN1C(=O)N[C@@H](Cc1ccccc1)C(=O)O (some centres not stated),103,-1.8,.,.,-6,i,0.98
S=C1NCCNC(=S)NCCOCCN1,103,.,.,.,6,i,0.89
Cc1cc2nc(/C(C#N)=C/c3ccncc3)[nH]c2cc1C,99,.,.,.,7,i,1
CC(NC(=O)c1ccc(OC2CCN(Cc3ccccn3)CC2)cc1)c1ccccc1 (configuration not stated),100,.,.,.,-10,i,0.95
NNC(=O)c1cccc(S(=O)(=O)Nc2cc(Cl)ccc2Cl)c1,102,.,.,.,.,i,0.99
CCOc1ccc(NC(=O)CN2CCN(CC(=O)Nc3ccc(F)cc3)CC2)cc1,100,-2.2,-56,131,-1,i,0.99
C/C(N)=C(/C#N)C(=O)COC(=O)CCSc1ccccc1Cl,115,-2.1,22,169,8,i,0.91
c1ccc(CNc2nc(-c3cccnc3)cs2)cc1,103,.,44,49,4,i,0.98
COc1ccc(CCC(=O)OCC(=O)Nc2ccccc2OC(F)F)cc1OC,102,.,.,.,2,i,1.1
CC(=O)Oc1ccc(C(=O)Cc2ccc3ccccc3n2)c(O)c1C,106,-0.4,0,142,-2,i,1
NC(=O)c1ccc(NC(=O)COC(=O)CCC(=O)c2ccc(Cl)cc2)cc1,97,.,.,.,-2,i,0.92
Cc1ccc(S(=O)(=O)N(C)C)cc1NC(=O)c1cc(=O)[nH]c2ccccc12,99,.,.,.,5,i,1.1
CCOC(=O)N1CCC(NC(=O)c2ccc3nc4ccccc4c(=O)n3c2)CC1,104,0.3,-27,62,-1,.,.
COc1ccc(Cl)cc1C(=O)Nc1ccc(NC(=O)C(C)C)cc1,100,.,.,.,2,i,0.76
Cn1c(=O)[nH]c(=O)c2c1nc(N/N=C/c1cccnc1)n2Cc1ccc(Cl)cc1,94,.,.,.,.,i,0.99
CC(=O)c1cn(Cc2ccccc2)c(=O)n(Cc2ccc(F)cc2)c1=O,98,.,.,.,0,i,0.92
CN1CCN(S(=O)(=O)c2ccc(NC(=S)NC(=O)C3CCC3)cc2)CC1,103,0.1,-23,111,8,i,0.86
COc1ccc(-n2cnnc2SCc2cnc(-c3ccccc3)s2)cc1,102,0.0,-64,65,-1,i,0.73
COc1ccccc1OCCC(=O)OCC(=O)Nc1ccc(S(=O)(=O)N2CCOCC2)cc1,99,.,.,.,-4,i,0.9
